From PubChem BioAssay
RanGTP-Imp inh: inhibitors of RanGTP-importin-beta interaction, primary screen, biochemical, FRET, CFP-Ran, YFP-importin-beta, homogeneous; Ran GTPase (GTP-bound) - importin-beta complex; 300,000 tested, 1.1% active; cell-free CFP-Ran/YFP-importin-beta FRET ratio; inhibition, % (no concentration beside the values);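 active = most replicates above 15%; inconclusive = exactly half above 15%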;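 also: 0% = DMSO wells and 100% = Ran loaded with GDP instead of GTP; wells of about 40 µL received 100 nL stock; the first replicate is given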
Vif TR-FRET: inhibitors of Vif binding to APOBEC3G peptide, primary screen, biochemical, TR-FRET, GST-Vif 1-94, biotin-A3G peptide, dose response retest (AID 1117319) | Virion infectivity factor (Human immunodeficiency virus type 1 group M subtype B (isolate … | TR-FRET GST-Vif / biotin-A3G peptide binding; higher % means a stronger effect; test concentration not given here; strong numbers were not always called active | one-dose inhibition, %; IC50 in µM for titrated hits | 260,000 tested, 0.57% active;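 active = above the screen mean plus three standard deviations and confirmed in dose response; inconclusive = results disagree or hit not tested in dose response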;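 also: Vif residues 1-94 fused to GST binding biotinylated APOBEC3G peptide 110-148; 0% = full assay without inhibitor and 100% = GST in place of GST-Vif; retest series ran down from 100 µM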
HNF4A DNA FP: change in binding of human HNF4A to DNA, primary screen, biochemical, fluorescence polarization, FITC-DNA | Hepatocyte nuclear factor 4-alpha (Homo sapiens), P41235 | 1 h | activity change, % at 10 µM | 360,000 tested, 0.3% active | AID 1224865, 2016; in the data active = activity change above about 30%, passing the limit was not always enough;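 also: controls were the assay level and a saturating level of protein; the project sought stronger binding though the title names inhibitors; some compounds called inactive have numbers as strong as hits; positive values seem to mean higher polarization but the record does not say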
FGF22 binding: binders of human FGF22 protein, primary screen, FGF22 synaptogenesis inhibitor project, biophysical, thermal shift, single point; calls only at 9.99 µM; Fibroblast growth factor 22 (Homo sapiens), Q9HCT0; 340,000 tested, 1.5% active; recombinant FGF22 thermal shift, SYPRO orange fluorescence; percent of sucrose octasulfate shift, DMSO zero;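 active = melting point raised past a set limit in the mean and every replicate; inconclusive = no clear call; three in four hits are not shown here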
Target sequence (Q9HCT0 whole entry, looked up): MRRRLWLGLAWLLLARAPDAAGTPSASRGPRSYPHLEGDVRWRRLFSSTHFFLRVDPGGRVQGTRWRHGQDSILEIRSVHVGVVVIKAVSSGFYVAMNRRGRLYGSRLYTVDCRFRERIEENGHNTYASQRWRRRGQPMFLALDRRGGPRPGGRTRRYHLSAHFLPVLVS
MLL AF4-AF9 inh: inhibitors of AF4 peptide binding to AF9, primary screen, biochemical, AlphaScreen, biotin-AF4 peptide, FLAG-AF9, single point | Protein AF-9 (Homo sapiens), P42568 | inhibition, % at 10 µM | 350,000 tested, 0.47% active;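 active = every replicate reaching a set inhibition limit, whatever the replicate mean, cut at about 25% in these data; inconclusive = mean inhibition reaches that limit but some replicates miss it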;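 also: 0% = plate neutral control median and 100% = total signal loss; the record names both 10 and 1 µM as test concentration; the first replicate is given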
Target sequence (P42568 whole entry, looked up): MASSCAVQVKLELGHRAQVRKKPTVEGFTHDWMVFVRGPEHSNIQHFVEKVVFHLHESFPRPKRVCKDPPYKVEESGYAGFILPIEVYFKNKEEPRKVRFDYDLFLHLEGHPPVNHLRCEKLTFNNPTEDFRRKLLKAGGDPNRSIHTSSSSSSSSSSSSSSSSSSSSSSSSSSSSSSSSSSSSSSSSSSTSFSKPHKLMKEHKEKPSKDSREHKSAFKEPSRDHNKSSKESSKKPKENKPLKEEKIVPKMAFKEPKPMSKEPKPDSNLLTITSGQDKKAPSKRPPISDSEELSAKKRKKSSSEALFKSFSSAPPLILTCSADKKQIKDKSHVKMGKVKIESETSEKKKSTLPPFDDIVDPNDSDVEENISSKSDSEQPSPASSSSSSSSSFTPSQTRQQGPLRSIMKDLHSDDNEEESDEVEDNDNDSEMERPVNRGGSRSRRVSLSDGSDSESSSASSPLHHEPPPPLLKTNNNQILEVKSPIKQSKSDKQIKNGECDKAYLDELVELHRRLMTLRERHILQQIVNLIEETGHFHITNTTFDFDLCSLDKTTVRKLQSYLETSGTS
E coli growth: E. coli growth inhibition, primary screen, OD600 | Escherichia coli growth, 23 h; active compounds read low | OD600 absorbance (no concentration beside the values) | 330,000 tested, 0.21% active | AID 1053175, 2014;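 active = OD600 absorbance below the run mean of sample wells minus 3.6 SD, in any replicate, cut at about 0.56 in these data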;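 also: stock transfer was 300 nL into about 60 µL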
UCH37 inh: inhibitors of human UCH37 deubiquitinase, primary screen, biochemical, Ub-AMC cleavage, fluorescence; inhibition, % (no concentration beside the values); 330,000 tested, 0.33% active; purified proteasome/UCH37;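 active = mean of two replicates above 20%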;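 also: 0% = compound-free wells with enzyme and 100% = wells lacking proteasome; stock transfer was 100 nL into about 20 µL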
Target sequence (Q9Y5K5 whole entry, looked up): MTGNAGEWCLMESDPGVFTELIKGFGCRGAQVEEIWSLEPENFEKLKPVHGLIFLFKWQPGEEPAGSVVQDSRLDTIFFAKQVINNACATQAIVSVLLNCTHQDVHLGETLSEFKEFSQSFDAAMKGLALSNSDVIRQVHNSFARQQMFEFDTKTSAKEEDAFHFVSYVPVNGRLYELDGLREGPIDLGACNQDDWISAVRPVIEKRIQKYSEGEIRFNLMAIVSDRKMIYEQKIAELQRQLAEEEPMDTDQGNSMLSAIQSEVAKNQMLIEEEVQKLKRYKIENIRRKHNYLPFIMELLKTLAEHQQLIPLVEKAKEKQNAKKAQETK
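Material: Human UCH37 enzyme supplied as purified proteasome complex | Schedule: 30 min preincubation with enzyme, 25 min cleavage at room temperature | Detection: AMC fluorescence 355/460 nm | Measure: % inhibition of Ub-AMC cleavage fluorescence | Controls: Wells without proteasome as full block, compound-free enzyme plus substrate as uninhibited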
Numbers without * were called inactive; i = inactive; ? = inconclusive; . = no result given; & = joins results of further samples. These rows are one share of the data, so the mix of outcomes need not match the whole.

Structure	HNF4A DNA FP	UCH37 inh	FGF22 binding	RanGTP-Imp inh	E coli growth	MLL AF4-AF9 inh	Vif TR-FRET
Cn1c(SCC(N)=O)nnc1-c1ccc(C(C)(C)C)cc1	1.4	3.5	i	0.4	0.653	-1.3	.
Cc1ccc(-c2noc(-c3ccccc3C(=O)N3CCOCC3)n2)cc1	1.3	1.4	i	2.5	0.694	1.6	-3.9%
O=C1NC(=Nc2cccc(O)c2)S/C1=C\c1cccnc1	1.1	.	i	0.0	.	4.8	.
Cc1ccc(N2C(=O)CC(N3CCN(c4ccc(F)cc4)CC3)C2=O)c(C)c1 (centres undefined)	0.3	.	.	-1.6	.	-1.1	5.4%
Cc1cccc2sc(N(CCN(C)C)C(=O)C3CCN(S(=O)(=O)c4cccs4)CC3)nc12	1.1	3.4	i	-1.7	0.634	11.3	-6.8%
NC(=O)c1cc(Cl)cn(-c2ccccc2)c1=O	-1.9	-3.4	i	-2.0	0.734	49.8*	3.6%
O=C(COC(=O)Cc1n[nH]c(=O)c2ccccc12)Nc1c(Cl)cccc1C(F)(F)F	2.1	-0.8	i	7.6	0.615	-1.4	5.5%
COCCn1c(SCC(=O)NNC(=O)c2ccccc2)nc2ccccc21	-1.0	5.6	i	.	0.663	1.5	-3.6%
CC(C)CN(C(=O)Cn1c(C(F)(F)F)nc2ccccc21)C1CCS(=O)(=O)C1 (centres undefined)	-1.5	0.8	i	?	0.697	-6.1	-8.3%
CCCCNc1c(-c2ccc(OC)c(SC(C)CC)c2)nc2cc(C)ccn12 (centres undefined)	-4.0&7.9	-86.0	i	.	0.723	13.8&10.7	.
O=C(CSc1nnc(-c2ccc(F)cc2)o1)NC1CCCCC1	0.6	3.9	i	-2.7	0.679	?	.
CCOC(=O)CSc1nnc2n1C(C)(C)Cc1ccccc1-2	5.3	0.4	.	?	0.629	.	17.6%
COc1ccc(CC(N)c2csc(NC(=O)CCc3ccccc3)n2)cc1 (centres undefined)	0.2	.	i	.	.	-2.8	.
Cc1ccccc1N1CCN(C(=O)c2ccc(Oc3ccc(C(F)(F)F)cn3)cc2)CC1	2.6	1.7	.	1.8	0.741	.	-0.9%
CCN(CC(=O)NCc1ccc(Cl)cc1)C(=O)/C=C/c1ccco1	3.4	1.5	i	-0.2	0.716	-0.2	.
Cc1nc(Sc2ccc(Cl)cc2)c(C#N)c(C)c1[N+](=O)[O-]	2.0	5.4	i	0.7	0.679	1.3	.
Cc1ccc(-c2nn(-c3ccc(F)cc3)cc2C(=O)N(C)CC(=O)Nc2ccc(N3CCOCC3)cc2)cc1	-1.4	5.3	.	0.6	0.645	-0.2	1.1%
Cc1ccc(NC(=O)COC(=O)c2nn(-c3ccc(Cl)cc3)cc2O)cc1	-1.8	-5.7	i	.	0.7	0.6	-8.1%
Cc1ccc(CNS(=O)(=O)c2ccc(C(F)(F)F)cc2)n1C	2.0	8.2	i	7.6	0.614	1.4	.
O=S(=O)(c1ccccc1)N1CCN(CCO)CC1	0.3	4.3	i	3.3	0.666	-5.2	0.8%

Two neighbouring compounds already listed:
Structure	HNF4A DNA FP	UCH37 inh	FGF22 binding	RanGTP-Imp inh	E coli growth	MLL AF4-AF9 inh	Vif TR-FRET
Cc1ccc(CNS(=O)(=O)c2ccc(C(F)(F)F)cc2)n1C	2.0	8.2	i	7.6	0.614	1.4	.
O=S(=O)(c1ccccc1)N1CCN(CCO)CC1	0.3	4.3	i	3.3	0.666	-5.2	0.8%

Continuation.
Structure	HNF4A DNA FP	UCH37 inh	FGF22 binding	RanGTP-Imp inh	E coli growth	MLL AF4-AF9 inh	Vif TR-FRET
c1ccc2c(c1)nnn2Cc1nnc2sc(-c3ccncc3)nn12	3.1	-0.8	.	-2.3	0.755	.	3.9%
COc1ccc(-n2c(SCC(=O)c3ccc[nH]3)nnc2-c2ccccc2)cc1	2.7	3.0	.	2.2	0.653	.	.
CC(C)Cn1cnc2c(SCc3ccc(Cl)cc3)nc(N)nc21	-1.4	1.2	i	.	0.692	0.3	-2.0%
COCCN1C(=O)C(=O)/C(=C(/O)c2ccc(S(=O)(=O)N3CCOCC3)cc2)C1c1ccc(OC)c(OC)c1 (centres undefined)	-3.3	13.8	i	2.2	0.721	0.4	.
O=[N+]([O-])c1ccc(C[n+]2cc(-c3ccccc3)n3c2CCCCC3)cc1	4.4	1.4	i	-4.2	0.652	2.6	-2.7%
O=C(N/N=C(\c1ccccc1)c1ccccn1)c1ccccc1Cl	1.5	.	i	-2.7	.	3.3	.
O=C(c1ccccc1)N1N=C(C(F)(F)F)CC1(O)c1ccccc1O (centres undefined)	2.3	1.1	i	-4.4	0.628	0.4	.
CCOC(=O)/C(C#N)=C\c1ccc(CC)s1	-1.2	7.6	.	0.2	0.713	.	-3.1%
O=C(Cn1cc([N+](=O)[O-])ccc1=O)Nc1ccc2c(c1)OCO2	-0.1	1.7	i	.	0.643	-2.4	-4.0%
O=C(Nc1ccc(F)cc1)c1ccccc1S(=O)(=O)c1ccccc1[N+](=O)[O-]	-0.1	-0.7	i	-2.5	0.725	-4.4	.
COc1ccc(OCCN2CCC(C(=O)NC(c3ccc(OC)cc3)c3ccccn3)CC2)cc1 (centres undefined)	-1.2	.	i	.	.	15.4	.
O=C(O)c1ccc2ncc(NC(=O)c3ccc(F)cc3)c(=O)n2c1	0.7	-9.3	i	8.5	0.694	-0.1	4.6%
CCC(NC(=O)c1ccccc1NC(=O)C(C)(C)C)C(=O)N1CCCC1 (centres undefined)	-0.3	2.5	i	5.2	0.648	-0.4	.
COc1ccc(Cc2nnc(NC(=O)c3cc(OC)c(OC)c(OC)c3)s2)cc1	1.7	1.1	i	-0.5	0.629	-3.0	.
Cc1cc(C)cc(NC(=O)c2ccc(S(=O)(=O)C(F)F)cc2)c1	0.0	0.6	.	5.3	0.646	.	.
Cc1cccc2cc(/C=N/Nc3ccc(C(=O)O)cc3)c(Cl)nc12	10.7	.	i	8.0	.	-26.5	8.1%
Cc1ccc(C(=O)Oc2ccccc2N2C(=O)C3C4CCC(C4)C3C2=O)cc1 (centres undefined)	0.4	-0.4	i	8.0	0.666	3.8	1.1%
Cc1cc(Br)c(NC(=O)c2c(-c3c(Cl)cccc3Cl)noc2C)c(Br)c1	-2.2	.	i	1.0	.	-1.2	.
CC(C)(C)NC(=O)C(=O)NCc1ccncc1	1.4	10.0	i	-0.9	0.69	-4.4	.
Cc1nnc(SCC(=O)NC2CCCCCC2)n1C	0.8	2.9	i	.	0.702	-0.8	-3.2%
Cc1ccc(C(=O)COC(=O)CCC(=O)Nc2ccccc2Cl)cc1[N+](=O)[O-]	0.1	0.0	.	-1.7	0.698	.	.
CC(=O)Nc1ccc(S(=O)(=O)Nc2nnc(Cc3ccc(Cl)cc3)s2)cc1	0.1	4.9	i	3.3	0.661	-2.2	.
CCOC(=O)CCC(NC(=O)CCCCCCCCC(=O)NC(CCC(=O)OCC)C(=O)OCC)C(=O)OCC (centres undefined)	0.0	0.0	i	6.1	0.706	-5.2	-4.5%
CN(CC(=O)Nc1ccccc1Br)C(=O)c1cc([N+](=O)[O-])ccc1N1CCOCC1	-1.8	8.3	i	3.0	0.699	-1.4	7.9%
Cn1c(=O)c2c(nc(SCC(=O)c3cccs3)n2Cc2ccc(F)cc2)n(C)c1=O	4.8	1.2	.	-0.9	0.708	.	-35.7%
CCC1(CC)NC(=O)N(CC(=O)N2CCN(S(=O)(=O)c3cccc(F)c3)CC2)C1=O	-1.3	-2.0	i	-0.1	0.698	-1.8	-8.7%
O=C(CSc1nnc(CNC(=O)c2c(F)cccc2F)o1)c1ccccc1	-0.5	1.7	i	3.3	0.609	-2.6	.
CN(C)C(CNC(=O)c1ccc2ccccc2n1)c1ccccc1 (centres undefined)	-4.0	1.8	i	0.7	0.624	3.6	-2.6%
CCN(CC(=O)NC1CCS(=O)(=O)C1)S(=O)(=O)c1cc(Br)ccc1Br (centres undefined)	3.5	5.4	i	.	0.696	0.3	5.5%
COc1ccc(/C=N/NC(=O)C(=O)N2CCCC2)cc1OC	3.4	.	.	1.6	.	.	-0.4%
COc1ccc(C)cc1S(=O)(=O)N(CC(=O)N1CCOCC1)Cc1ccccc1	0.9	-0.2	.	-1.2	0.679	.	0.2%
O=C(COC(=O)CCN1C(=O)c2ccccc2C1=O)Nc1ccc(S(=O)(=O)N2CCCC2)cc1	3.3	2.2	.	0.6	0.721	.	-0.2%
C[C@H](NC(=O)C1CCN(C(=O)[C@H](Cc2ccccc2)NC(=O)OC(C)(C)C)CC1)C(=O)O	3.4	0.5	i	-2.5	0.664	-3.4	-6.1%
COc1ccc(-c2nnc(SCC(=O)N3CCCCC3)o2)cc1	3.1	2.9	i	2.2	0.691	-0.8	.
Cc1ccccc1NC(=S)N(CCCN1CCCCC1)Cc1ccco1	4.6	2.6	.	0.2	0.648	.	.
Cc1ccc(CN2CCC[C@]3(N[C@H](c4ccc(C)cc4)[C@@H]4C(=O)N(C)C(=O)[C@@H]43)C2=O)cc1	4.2	.	i	.	.	1.4	.
CCC1CCCCN1CCCNC(=O)c1csc2c1CCCCC2 (centres undefined)	4.6	0.3	i	-0.1	0.696	-0.5	.
CCOc1cc(CNC(=O)CCCn2c(=O)c3cccn3c3cccnc32)cc(OCC)c1OCC	-2.1	0.5	i	-2.2	0.708	-0.2	.
CCOC(=O)[C@]12CCCC=C1N(Cc1ccc(Cl)cc1Cl)C(=O)[C@H](CC(=O)N1CCC(c3ccccc3)CC1)C2	-3.8	.	i	.	.	1.6	.
CC(C)CCNC(=O)C1CCCN(S(=O)(=O)c2ccc(-n3cnnn3)cc2)C1 (centres undefined)	-1.2	0.9	i	4.9	0.682	-0.9	9.2%
CCOC(=O)CSc1nc2ccccc2n1CC(=O)NC(C)(C)C	-3.3	3.1	i	0.5	0.725	-0.1	-0.1%
O=C(O)CCC(=O)OC1CC2CCC1C2 (centres undefined)	5.0	4.2	.	1.4	0.713	.	11.0%
CCN(CC(=O)Nc1ccccc1C(F)(F)F)C(=O)c1ccc2c(=O)n3c(nc2c1)CCC3	0.5	-5.0	i	.	0.698	0.3	-13.6%
COC(=O)Cn1c2ccccc2c2nc3ccccc3nc21	5.4	-45.6	i	10.8	0.645	-7.0	-8.0%
Cc1ccsc1/C=C(\C#N)C(=O)Nc1c(C)n(C)n(-c2ccccc2)c1=O	0.4	14.7	i	1.2	0.672	-0.3	-1.0%
CCOC(=O)CCC(NC(=O)CCCC(=O)NC(CCC(=O)OCC)C(=O)OCC)C(=O)OCC (centres undefined)	-0.1	1.3	i	-6.0	0.654	2.8	-5.6%
CCC(=O)NC(Nc1ccccn1)(C(=O)OC)C(F)(F)F (centres undefined)	-1.0	0.7	.	3.9	0.721	.	3.9%
Cc1sc2ncn(CC(=O)N(C)C3CCCCC3)c(=O)c2c1C	3.9	2.4	i	-2.2	0.663	1.0	6.7%
O=C(O)c1ccc(C(=O)C(=O)c2ccccc2)cc1	-3.7	6.3	i	2.3	0.719	-2.6	2.2%
CCC1(C)Cc2c(C#N)c(N)n(-c3ccccc3)c(=O)c2CO1 (centres undefined)	-1.3	0.5	.	-2.0	0.726	.	9.4%
